# Anaer choline gr – blocks anaerobic gram-negative growth on choline; Gram-negative bacterium anaerobic choline minimal medium, absorbance growth; active compounds read low; many inactives read as strong as hits in the columns shown; calls only; hit rate 0.2% among 55,000;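 active means growth z-score on choline under -2 at 7 or 20 h with little or no fall on glycerol, limits in tiers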;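 further: stock transfer was 300 nL into about 50 µL; the organism is E. coli; final concentration not given here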
# Anaer choline gr early – second read-out of Anaer choline gr, no call of its own (marks repeat the call); z-score; measured here: choline growth z-score, timepoint 1;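 score of optical density at 7 h as mean of two plates; lower means less growth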
# The depositor's hits bear a star; i = inactive; & = joins results of further samples.
Anaer choline gr	Anaer choline gr early	compound
i	-0.7	COc1ccccc1N1CCN(c2ccc(=O)n(CC(=O)NCc3ccccn3)n2)CC1
i	0.07	Cc1oc2ccc(O)c(CN3CCCCC3)c2c1C(=O)Nc1ccccc1
i	0.18	COc1ccc2c(c1)CCC1C2CC[C@@]2(C)C1CC[C@@H]2NCCCCCCN1C(=O)CCC1=O (stereo partly specified)
i	1.85	Cc1nn(CC(=O)NCCc2ccc(S(N)(=O)=O)cc2)c(=O)c2c(C)n(-c3ccccc3)nc12
i	-0.14	Cc1cc2c(C)c(C(=O)N3CCCC3)oc2c(S(=O)(=O)NCc2ccc3c(c2)OCO3)c1C
i	1.64	CC1(C(=O)NC2CCCCC2)Cn2c(cc3ccccc32)C(=O)N1c1ccc2c(c1)OCO2 (stereo unspecified)
i	0.6	C=C1C(=O)OC2C=C(C)CCC=C(C)CCC12 (stereo unspecified)
i	1.79	COc1ccc(CNC(=O)c2cc(-c3ccc(OC)c(OC)c3)nc3n[nH]c(-c4ccc(OC)cc4)c23)cc1
i	-1.35	CCc1c(C)nc2ncnn2c1Sc1ccc(N(C)C)cc1
i	0.32	CC(C)NC(=O)c1cccc(-c2noc(C3CCN(S(=O)(=O)c4ccc(Cl)cc4)CC3)n2)c1
i	0.33	CCCCC[C@H](O)/C=C/[C@@H]1[C@H](CCCCCCC(=O)O)[C@H](O)C[C@H]1O
i	0.41	CCn1ccc(C(=O)N2CCCn3nc(-c4cccs4)cc3C2)n1
i	-1.34	Cc1c(N(C(=O)CNC(=O)c2ccccc2)C2(C(=O)NC3CCCC3)CCCCC2)c(=O)n(-c2ccccc2)n1C
i	-0.17	Cc1cc(C)n2nc(Cc3ccccc3)nc2n1
i	0.33	O=S(=O)(c1cc(F)ccc1F)N1CCN(c2cc(-c3ccc(F)cc3)ncn2)CC1
i	-0.28	CCSc1nccn2nc(-c3ccc(C)cc3C)cc12
i	1.19	O=C(Cn1c(=O)n(CC(=O)NC2CCCC2)c(=O)c2ccccc21)Nc1ccccc1
i	1.03	Cc1ccc(C)c(Cn2c(C(C)O)nc3ccccc32)c1 (stereo unspecified)
i	0.41&-0.08&0.18&0.43	Cc1ccc(S(=O)(=O)NC(=O)NN2CCCCCC2)cc1
i	0.04	O=C1CCS(=O)(=O)N1c1ccc(S(=O)(=O)Nc2ccc(Cl)cc2)cc1
i	0.39	COc1ccc(NC(=O)Cn2c(=O)n(-c3ccc(C)cc3)c(=O)c3ccccc32)cc1
i	0.19	CC(C)c1cc(C2CCCN2C(=O)Cc2cccs2)on1 (stereo unspecified)
i	-0.1	CC(C)CCSc1nnc2c(S(=O)(=O)N3CCOCC3)cccn12
i	-1.96	Cc1cc(C)c(S(=O)(=O)N2CCC(c3noc(-c4ccccc4)n3)CC2)cc1C
i	0.08	CN1C(=O)c2cc(NC(=O)CN3C(=O)c4ccccc4C3=O)ccc2Oc2ccccc21
i	0.58	CCCSc1nn(CC)c2nc3c(c(=O)n12)C(C)(C)Cc1ccccc1-3
i	1.48	COc1cc2c3nnc(-c4ccccc4)c-3cn(Cc3ccccc3)c2cc1OC
i	-0.44	COc1ccc(-c2cc(OC(=O)c3cccc(C)c3)c3c(C)oc(C)c3c(=O)c2)cc1OC
i	-0.15	Cn1c(=O)c2ccc(C(=O)NC3CCCC3)cc2n2c(=O)n(CC(=O)c3ccc(F)cc3)nc12
i	0.14	Cc1ccccc1Nc1c(-c2ccc(Cl)cc2)nc2cnccn12
i	0.69	COc1ccc(C2Nc3ccccc3-n3c(-c4ccccc4)c4c(=O)n(C)c(=O)n(C)c4c32)c(OC)c1 (stereo unspecified)
i	0.52	COc1ccc(C(CNC(=O)c2ccccc2Br)c2c[nH]c3ccccc23)cc1 (stereo unspecified)
i	-0.69	Cc1occc1-c1nnc2sc(-c3c[nH]c4ccccc34)nn12
i	-0.58	COc1ccc(Cl)cc1-c1noc(-c2ccncc2)n1
i	-0.97	CC(C)NC(=O)CCn1c(=O)c2cc(Cl)ccc2n2c(=O)n(CC(=O)NC(C)C)nc12
i	0.02	O=C(Cn1nc(N2CCN(c3ccc(F)cc3)CC2)ccc1=O)NC1CCCC1
i	0.05	O=S(=O)(Nc1ccc(N2CCCS2(=O)=O)cc1)c1ccccc1Cl
i	1.95	CCOc1ccc(-c2csc(Nc3ccc(C)cn3)n2)cc1
i	0.32	O=C(CCn1ccc2cc(S(=O)(=O)N3CCCCC3)ccc21)NCc1cccc(Cl)c1
i	0.5	CC(=O)OCOC(=O)CN(CC(=O)OCOC(C)=O)c1ccccc1OCCOc1ccccc1N(CC(=O)OCOC(C)=O)CC(=O)OCOC(C)=O
i	0.75	Cc1ccc(S(=O)(=O)[C@H]2CS(=O)(=O)C[C@@H]2N2CCc3ccccc3C2)cc1
i	0.73	COc1cc(C)c(S(=O)(=O)n2ccnc2)cc1C
i	0.31	CN(C)c1nc2ncn3c(=O)n(CC(=O)Nc4ccccc4)nc3c2s1
i	0.42	CCCn1c(=O)c2ccc(C(=O)NC(C)C)cc2n2c(=O)n(CC(=O)c3ccc(OCC)cc3)nc12
i	0.12	Cc1c(C(=O)N2CCCC(C)C2)sc2ncnc(N3CCN(C)CC3)c12 (stereo unspecified)
i	-0.06	Cc1ccc(NC(=O)c2sc3nc(-c4ccc(F)cc4)cn3c2C)cc1F
i	-0.5	COc1ccc(OC)c(CNc2ncnc3onc(-c4cc(F)cc(F)c4)c23)c1
i	-0.16	CC(=O)N1CCOc2cc(S(=O)(=O)N3CCC(Cc4ccccc4)CC3)c(C)cc21
i	-1.41	O=C(Nc1ccc2nc(SCC(=O)N3CCOCC3)sc2c1)c1ccccc1Cl
i	0.32	Cc1ccc(-c2nnc(SCC(=O)Nc3ccccn3)n2-c2ccccc2)cc1
i	0.01	O=C1c2ccccc2C(=O)N1c1nc2n(n1)C(c1ccccc1)C=C(c1ccccc1)N2 (stereo unspecified)
i	0.5	CCNc1ncnc2onc(-c3cc(F)cc(F)c3)c12
i	-0.78	Cc1cc(C)cc(Nc2c(C(=O)N3CCOCC3)cnc3ccccc23)c1
i	0.48	Cn1c(SCc2ccccc2F)nnc(CCC(=O)N2CCCC2)c1=O
i	0.27	O=C(Nc1ccc(Cl)cc1)c1ccc(CN2C(=O)CCn3nccc32)cc1
i	-1.94	CC1CCN(C(=O)C2CCCN(S(=O)(=O)c3ccc4c(c3)nnn4C(C)C)C2)CC1 (stereo unspecified)
i	-0.69	CNCc1ccc(-c2ccc(F)c(Cl)c2)o1
i	-0.75	CCOC(=O)C1CCCN(c2nc(C)nc3onc(C)c23)C1 (stereo unspecified)
i	0.13	Cc1ccc(-c2noc(CSc3ccc(-c4ccc5c(c4)OCO5)nn3)n2)cc1
i	0.23	CC(=O)Nc1ccccc1-c1nc2ccccc2n(C(C)C(=O)Nc2c(C)cc(C)cc2C)c1=O (stereo unspecified)

# (next part)
Anaer choline gr	Anaer choline gr early	compound
i	0.26	Cc1cc(N2CCCCC2)n2nc(CN3CCC4(CC3)OCCO4)nc2n1
i	-0.85	CCC(C)NC(=O)CN1C(=O)COc2ccc(S(=O)(=O)N3CCOCC3)cc21 (stereo unspecified)
i	0.98	Cc1ccc(C)c(C(=O)Cn2nc3n(Cc4ccccc4)c(=O)c4ccccc4n3c2=O)c1
i	-0.7	Cc1ccc(S(=O)(=O)Nc2cc(C(=O)O)ccc2N2CCN(c3cccc(Cl)c3)CC2)cc1
i	0.62	Cc1ccc(C(=O)Nc2ccc3c(c2)CCC(=O)N3)cc1C
i	0.58	CC1CN(C(=O)Nc2ccc(C(=O)NCc3cccc(F)c3)cc2)c2ccccc2S1 (stereo unspecified)
i	0.38	CC(C)c1ccc(NS(=O)(=O)c2cc3c4c(c2)CCN4C(=O)CC3)cc1
i	0.1	O=C(Nc1ccc2c(c1)OCO2)Nc1c(-c2cccnc2)[nH]c2ccccc12
i	-0.08	O=S(=O)(Nc1ccc(Cl)cc1)c1ccc2c(c1)-c1oncc1CO2
i	1.13	Cc1cc(C)c(Cn2c(=O)c3cnc(-c4ccncc4)nc3n(C)c2=O)c(C)c1
i	-0.32	Cn1cnc(S(=O)(=O)N2CCCCC2)c1
i	0.05	CCc1nc(NCc2cccnc2)c2onc(-c3ccc(C)cc3)c2n1
i	0.95	CCOC(=O)c1ccc(NC(=O)C2CCN(c3ncnc4c3sc3nc(C)cc(-c5ccccc5)c34)CC2)cc1
i	0.3	CCn1c(=O)c(=O)n(CCC(=O)NCc2ccccc2OC)c2cccnc21
i	0.01	O=C(NC1CC1)C1CCCN(c2ncc(-c3ccc(F)cc3)cn2)C1 (stereo unspecified)
i	-0.09	O=c1[nH]c2cc(Cl)c(S(=O)(=O)N3CCCC3)cc2[nH]1
i	-1.03	O=C(Nc1ccc(Br)cc1F)N1CCN(c2cc(-c3ccccc3)ncn2)CC1
i	1.49	Cc1nn(-c2nc3ccccc3n2C)c2c1C(c1ccccc1F)CC(=O)N2 (stereo unspecified)
i	-1.74	CCn1c(=O)oc2cc(NC(=O)c3c(-c4ccccc4Cl)noc3C)ccc21
i	0.22	C[C@@H]1C[C@H]2[C@@H]3C[C@H](F)C4=CC(=O)C=C[C@]4(C)[C@@]3(F)[C@@H](O)C[C@]2(C)[C@@]1(O)C(=O)CO
i	0.2	COc1ccc(S(=O)(=O)Nc2ccc(N3CCCS3(=O)=O)cc2)cc1OC
i	0.71	CCOc1nc2cccc(C(=O)OCc3oc(=O)oc3C)c2n1Cc1ccc(-c2ccccc2-c2noc(=O)[nH]2)cc1
i	0.04	CCCn1c(=O)c2sccc2n2c(=S)[nH]nc12
i	-0.34	Cc1oc(-c2cccc(Cl)c2)nc1Cn1nnc(-c2nc(-c3cccnc3)no2)c1C
i	1.08	Cc1ccc(C)c(NC(=O)c2ccc3c(c2)N(Cc2ccc(F)cc2)C(=O)CS3)c1
i	0.2	N[C@@H](Cc1cc(-c2ccc(Cl)cc2Cl)cc(CP(=O)(O)O)c1O)C(=O)O
i	-1	Cn1c(=O)oc2cc(S(=O)(=O)NCCn3c(-c4ccncc4)nc4cccnc43)ccc21
i	-0.47	O=C(Nc1ccc2c(c1)OCO2)N1CCC(N2CCN(Cc3cccc(F)c3)C(=O)C2=O)CC1
i	0.41	O=C(Nc1ccccc1)N1CCC(n2cnc3c(Cl)cccc3c2=O)CC1
i	1.66	COc1ccc(NC(=O)N2CCOc3ccc(COCc4cccc(F)c4)cc3C2)c(OC)c1
i	-1.16	Clc1cccc(-c2ccc(CNCC3CCNCC3)o2)c1
i	1.16	CCCC1c2ccc(C)n2CCN1C(=O)Nc1ccc(CC(=O)OCC)cc1 (stereo unspecified)
i	-0.36	CCCn1nnc2cc(S(=O)(=O)N3CCCC(C(=O)NCc4ccc(C)cc4)C3)ccc21 (stereo unspecified)
i	-0.41	Cc1cc2c(cc1S(=O)(=O)N1CCCC(C(=O)N3CCOCC3)C1)OCC(=O)N2 (stereo unspecified)
i	-0.54	CCCNC(=O)c1ccc2c(c1)S(=O)(=O)N=CN2CCC
i	-0.85	COC(=O)c1ccc2c(=O)n(CC(=O)NCCN3CCc4ccccc4C3)c(=S)[nH]c2c1
i	-0.48	Cc1nc(SCC(=O)Nc2sc3c(c2C(N)=O)CCCC3)cc(-c2ccccc2)n1
i	0.49	O=c1[nH]c(=O)n(Cc2cccnc2)c2c1CN(C1CCCCC1)CN2
i	-0.29	O=S(=O)(NCc1ccco1)c1ccc(-c2cc(C(F)(F)F)on2)o1
i	-0.65	Cc1ccc2nc(Cc3ccc(N)cc3)[nH]c2c1
i	0.78	Cn1cc(C(F)(F)F)nc1-c1ccc(OCC(O)CNCCOc2ccc(O)c(C(N)=O)c2)cc1 (stereo unspecified)
i	-2.38	CCn1c(C(=O)NCCc2c[nH]c3ccccc23)c(N2CCCC2=O)c2cc(F)ccc21
i	-0.51	COc1ccc(CCNC(=O)C2CCC(CNc3c(N4CCCC4)c(=O)c3=O)CC2)cc1OC (stereo unspecified)
i	-0.55	O=C(NCc1ccc2c(c1)OCO2)c1cc(-c2ccc3c(c2)OCCO3)on1
i	-0.34	Cc1nc2sccn2c(=O)c1S(=O)(=O)Nc1ccc(N2CCN(C(=O)C(C)C)CC2)cc1
i	-0.65	Cc1nn(-c2ccc3nnc(C)n3n2)c2c1C(c1c(F)cccc1Cl)CC(=O)N2 (stereo unspecified)
i	-1.58	CC(C)C[C@@H](C=O)NC(=O)[C@H](CC(C)C)NC(=O)[C@H](CC(C)C)NC(=O)OCc1ccccc1
i	0.35	CCOC(=O)c1noc2ncn(CC(=O)Nc3ccc(OC)c(Cl)c3)c(=O)c12

# Entries from the list above with an NH in an aromatic ring:
Anaer choline gr	Anaer choline gr early	compound
i	1.79	COc1ccc(CNC(=O)c2cc(-c3ccc(OC)c(OC)c3)nc3n[nH]c(-c4ccc(OC)cc4)c23)cc1
i	0.52	COc1ccc(C(CNC(=O)c2ccccc2Br)c2c[nH]c3ccccc23)cc1 (stereo unspecified)
i	-0.69	Cc1occc1-c1nnc2sc(-c3c[nH]c4ccccc34)nn12
i	0.1	O=C(Nc1ccc2c(c1)OCO2)Nc1c(-c2cccnc2)[nH]c2ccccc12
i	-0.09	O=c1[nH]c2cc(Cl)c(S(=O)(=O)N3CCCC3)cc2[nH]1
i	0.71	CCOc1nc2cccc(C(=O)OCc3oc(=O)oc3C)c2n1Cc1ccc(-c2ccccc2-c2noc(=O)[nH]2)cc1
i	0.04	CCCn1c(=O)c2sccc2n2c(=S)[nH]nc12
i	-0.85	COC(=O)c1ccc2c(=O)n(CC(=O)NCCN3CCc4ccccc4C3)c(=S)[nH]c2c1
i	0.49	O=c1[nH]c(=O)n(Cc2cccnc2)c2c1CN(C1CCCCC1)CN2
i	-0.65	Cc1ccc2nc(Cc3ccc(N)cc3)[nH]c2c1
i	-2.38	CCn1c(C(=O)NCCc2c[nH]c3ccccc23)c(N2CCCC2=O)c2cc(F)ccc21

# High-throughput results (PubChem BioAssay)

# This is a subset. The share of hits here may be higher or lower than overall.
